# RecA splice inh – inhibitors of M. tuberculosis RecA intein splicing; P9WHJ3; cell-free RecA intein splicing, fluorescence; inhibition, %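 (about 9 µM by stock and volumes)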; 290,000 compounds, 0.75% hits; in the data active = inhibition above about 30%; inconclusive = no clear call, values can overlap the other calls;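 also: 0% = vehicle wells and 100% = reference inhibitor control wells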
# Target sequence (P9WHJ3 whole entry, looked up, canonical isoform): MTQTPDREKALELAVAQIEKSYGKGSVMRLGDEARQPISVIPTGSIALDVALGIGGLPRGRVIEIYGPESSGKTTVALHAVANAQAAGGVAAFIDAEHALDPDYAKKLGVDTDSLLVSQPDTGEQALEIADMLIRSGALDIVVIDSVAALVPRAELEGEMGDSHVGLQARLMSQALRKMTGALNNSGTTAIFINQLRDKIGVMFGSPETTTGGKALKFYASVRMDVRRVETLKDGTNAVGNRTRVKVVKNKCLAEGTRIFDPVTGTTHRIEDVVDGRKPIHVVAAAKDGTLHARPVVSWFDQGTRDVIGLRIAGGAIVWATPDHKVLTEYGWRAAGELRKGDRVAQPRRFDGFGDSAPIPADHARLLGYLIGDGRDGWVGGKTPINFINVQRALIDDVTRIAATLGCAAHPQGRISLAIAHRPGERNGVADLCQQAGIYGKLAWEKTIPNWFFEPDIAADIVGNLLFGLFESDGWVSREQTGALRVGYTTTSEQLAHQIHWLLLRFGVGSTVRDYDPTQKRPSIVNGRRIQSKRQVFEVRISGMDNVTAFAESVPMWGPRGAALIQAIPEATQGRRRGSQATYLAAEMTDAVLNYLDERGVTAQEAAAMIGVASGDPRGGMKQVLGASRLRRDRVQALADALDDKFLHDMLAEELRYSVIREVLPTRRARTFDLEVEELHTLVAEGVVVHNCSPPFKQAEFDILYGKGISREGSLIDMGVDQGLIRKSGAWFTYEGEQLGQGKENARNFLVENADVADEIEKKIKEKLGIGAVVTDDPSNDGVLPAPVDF
# Mtb betalactam – beta-lactam sensitization of Mtb H37Rv; inhibition, % at 25 µM; 330,000 compounds, 0.27% hits; AID 434955; M. tuberculosis H37Rv growth with meropenem, percent inhibition; hits of this screen are not shown here;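 active = about 74% or more and at least 40 points above the plate without the antibiotic, then above 30% in a dose series; inconclusive = first-round hits that could not be retested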;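 also: growth measured after seven days incubation then overnight dye step; 0% = bacteria only wells and 100% = bacteria with antibiotic; twin plates without the antibiotic show which effects depend on it; some results filed as inactive read as strong as hits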
# Arbovirus inh – arbovirus infection inhibition; AID 1251; 200,000 compounds, 0.37% hits; arbovirus infection cell-based antiviral screen; inhibition, % at 10 µM;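 active = inhibition from about 30%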;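 also: bluetongue infection of BSR cells; cell survival read as ATP light after 72 h; 0% = infected wells without compound and 100% = uninfected wells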
# Mtb growth – M. tuberculosis H37Rv growth inhibitors, H37Rv strain (AID 1626). M. tuberculosis H37Rv growth inhibition; higher % means a stronger effect. inhibition, % at 10 µM; hits with a dose series show IC50 in µM. 220,000 compounds, 0.95% hits;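 active = confirmed in a dose series; inconclusive = inhibition above 80% but not taken into the dose series; inactive = below 80% or under 30% at every dose of the series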;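 also: bacteria incubated seven days before Alamar blue readout; 0% = bacteria only wells and 100% = bacteria with antibiotic wells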
# YopH PTP inh – blocks Yersinia enterocolitica YopH tyrosine phosphatase; fluorescence Ex485/Em525; inhibition, %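 (about 10 µM by stock and volumes)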; 140,000 compounds, 0.16% hits;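 active = inhibition of 50% or more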;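 also: controls were vehicle for no effect and minimum signal wells for full effect; inactives centre near -20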
# Arbovirus inh repeat – second read-out of Arbovirus inh, no call of its own (marks repeat the call); inhibition, %; measured here: 10K subset replicate screen; many hits read low in the repeat;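 first of two repeat runs on a subset; 0% = infected and 100% = uninfected wells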
# * hit, by the source's call; ? = inconclusive; . = not tested or not shown.
SMILES,RecA splice inh,Mtb betalactam,Arbovirus inh,Mtb growth,YopH PTP inh,others
Cc1c(/C=N/N2C(=O)C3C4C=CC(C4)C3C2=O)c2ccccc2n1C (configuration not stated),-0.5,1,-5,-3%,-16,
O=C(COc1ccc(C(=O)c2ccccc2)cc1)NC1CCCCCC1,3.8,-1,3,5%,-2,
Cn1c(=O)c(=O)n(C)c2cc(S(=O)(=O)N3CCCC3C(=O)NCc3ccco3)ccc21 (configuration not stated),-1.7,-10,.,3%,.,
C=C(C)c1cccc(C(C)(C)NC(=O)N2CCN(c3ncccn3)CC2)c1,-1.2,-9,.,-13%,-36,
O=C1C2C(c3ccccc3)C=CC(c3ccccc3)C2C(=O)N1CCCO (configuration not stated),2.5,6,-5,2%,0,
Cc1csc(Nc2cccc3ccccc23)n1,6.3,-1,-3,7%,.,
COc1c(F)c(F)c(C(=O)Nc2ccc(N3CCN(C(C)=O)CC3)c(Cl)c2)c(F)c1F,0.4,62,-16,7%,-12,
Cc1cc(C(C)(C)C)oc1C(=O)NCCCNC(=O)c1oc(C(C)(C)C)cc1C,-1.6,-12,-2,-6%,-3,
CCC1(C)Cc2c(C#N)c(SC)nc(N3CCOCC3)c2CO1 (configuration not stated),1.0,75,.,.,.,
CCN1C(=O)C(=O)N(Cc2ccc(OC)c(F)c2)C1=O,1.1,-6,.,.,.,
O=C(O)Cc1ccc(NC(=O)COc2ccc3ccccc3c2)cc1,0.7,41,.,.,.,
CCN1CCN(C(=O)Cn2ncc3c2-c2ccccc2OC3)CC1,0.5,-7,-2,0%,-44,Arbovirus inh repeat=-4
CCOC(=O)c1c(CC(C)C)csc1/N=C/C1C(=O)CCCC1=O,1.6,7,5,-5%,.,
Cc1ccc(-c2nc3cccnc3s2)cc1NS(=O)(=O)c1ccc2c(c1)CCCC2,8.1,-2,23,2%,-24,
Cc1ccc2c(c1)/C(=N/N1C(=O)c3ccccc3C1=O)C(=O)N2,-6.5,6,-9,-2%,-14,
Cc1ccccc1-c1nnc(SCC(=O)N2CCCC2)o1,4.0,5,.,.,.,
CSc1nc(N2CCOCC2)c2sccc2n1,4.0,-2,-4,1%,.,
CC(C)N(CCn1c(=S)[nH]c2ccccc2c1=O)C(C)C,0.1,-2,6,-6%,-27,
O=C(COC(=O)c1ccc(S(=O)(=O)N2CCCCC2)cc1)NCc1ccco1,-0.3,2,0,0%,.,
CN(C)CCC(=O)c1ccc(Cl)cc1,1.4,99,1,37%,-8,
COc1ccc(-n2nc(C(=O)NCC(=O)N3CC(C)CC(C)C3)c3ccccc3c2=O)c(OC)c1 (configuration not stated),2.6,-1,.,.,.,
Cn1c(C(=O)N2CCCC(C(=O)NCCN3CCOCC3)C2)cc2sccc21 (configuration not stated),-3.1,-1,10,0%,-44,
COc1cc(-c2nc(C(F)(F)F)c(OC)o2)cc(OC)c1OC,-2.4,8,4,2%,-8,
O=C(O)c1ccc(CS(=O)(=O)c2ccc(Br)cc2)cc1,-2.5,5,.,.,.,
C/C(=N\OCc1ccc(C#N)cc1)c1ccccc1,2.0,7,0,11%,.,
CC(Sc1nnc2c(n1)C1(C)CCC2C1(C)C)C(=O)Nc1ccccc1 (configuration not stated),1.3,7,0,-12%,-31,
Cc1ccc(NS(=O)(=O)c2cc3[nH]c(=O)c(=O)[nH]c3cc2C)c(C)c1,2.2,?,.,.,.,
Cc1ccc(-c2cc(C(=O)N/N=C/c3ccco3)[nH]n2)cc1,-1.0,29,1,.,-7,
CCOC(=O)C(Cc1ccccc1)NC(=O)CNC(=O)CNC(=O)OCc1ccccc1 (configuration not stated),-2.2,-7,-7,3%,-60,
Cc1cc([N+](=O)[O-])nn1CCCC(=O)Nc1sc2c(c1C(N)=O)CCC(C)C2 (configuration not stated),-1.4,-2,-10,0%,-36,
CCCCn1c(SCC(=O)N2CCCC2)nnc1-c1ccccc1,1.2,-5,2,-9%,5,
COc1ccccc1N1CCN(C(=O)CSc2nnc3c4ccccc4nc(Cc4ccccc4)n23)CC1,1.2,-13,7,0%,-14,
Cc1nnc(NC2CCCCC2)[nH]c1=O,0.0,-12,8,-9%,31,
CCOC(=O)N1CCN(S(=O)(=O)N2CCCC(C(=O)NCCCN3CCCCC3CC)C2)CC1 (configuration not stated),2.1,-5,.,.,.,
O=C(Cn1c(C(=O)N2CCc3ccccc3C2)cc2sccc21)c1ccccc1,1.6,0,-6,7%,-50,
Cc1cc(CNC(=O)c2cc(Br)ccc2Cl)nn1C,-0.1,-14,5,-11%,12,
COc1ccc2c(CC(=O)Nc3ccccc3N3CCOCC3)coc2c1,-1.2,-9,.,6%,.,
Cc1onc(-c2ccccc2)c1-c1n[nH]c(=S)n1-c1ccccc1,.,-3,.,-4%,-24,
CCCCn1c(N)c(N(CCOC)C(=O)CN2CC=C(c3ccccc3)CC2)c(=O)[nH]c1=O,-2.1,-1,5,-3%,.,
Cc1cc(C)c(Nc2cc(S(=O)(=O)O)c(N)c3c2C(=O)c2ccccc2C3=O)c(C)c1,.,18,-24,12%,-23,
O=C1Cc2cc(S(=O)(=O)Nc3ccccc3Cl)cc3c2N1CCC3,1.1,-2,.,.,.,
CC(C)CC(=O)Nc1nnc(SCC(=O)Nc2ccc3c(c2)OCO3)s1,-1.5,-3,-1,5%,-13,
Cc1cc(C)cc(N=Cc2ccc([N+](=O)[O-])s2)c1,-2.0,99,-22,5%,86*,
COc1ccc(NC(=O)c2cnn(-c3ccccc3)c2C)c(OC)c1,1.5,2,.,.,.,
Oc1cccc(Nc2c3ccccc3nc3ccccc23)c1,3.5,5,.,.,.,

# Next section; it opens with the three that closed the last part.
SMILES,RecA splice inh,Mtb betalactam,Arbovirus inh,Mtb growth,YopH PTP inh,others
Cc1cc(C)cc(N=Cc2ccc([N+](=O)[O-])s2)c1,-2.0,99,-22,5%,86*,
COc1ccc(NC(=O)c2cnn(-c3ccccc3)c2C)c(OC)c1,1.5,2,.,.,.,
Oc1cccc(Nc2c3ccccc3nc3ccccc23)c1,3.5,5,.,.,.,
O=C1c2cccnc2C(Nc2ccc(S(=O)(=O)N3CCCCCC3)cc2)N1Cc1ccccc1 (configuration not stated),.,-3,0,-2%,11,
CC1(C)CC(NC(=O)C(C)(C)Oc2ccc(Cl)cc2)CC(C)(C)N1,-6.0,-3,.,.,.,
N#CC1=C(N)Oc2c(oc(CO)cc2=O)C1c1ccsc1 (configuration not stated),-2.0,1,-3,-5%,-19,
COc1cc(-c2noc(CCCC(=O)Nc3ccc(C(N)=O)cc3)n2)cc(OC)c1OC,.,0,.,-11%,.,
O=C(CCC(=O)N1CCN(S(=O)(=O)c2ccc(Cl)cc2)CC1)NC1CCCc2ccccc21 (configuration not stated),0.2,-2,-14,0%,-5,
Cc1onc(-c2ccccc2)c1C(N)=O,-4.4,2,1,-11%,-16,
CCOC(=O)C1CCN(c2ccc([N+](=O)[O-])c(C(C)=O)c2)CC1,0.2,11,6,-2%,.,
Cc1ccc(-n2c(C)cc(C(=O)OCC(=O)N(C)C3CCS(=O)(=O)C3)c2C)cc1 (configuration not stated),1.3,-13,-5,1%,-34,Arbovirus inh repeat=-2
O=Cc1cc(Cl)ccc1OCCN1CCC(Cc2ccccc2)CC1,5.4,12,.,.,.,
CC(C)(C)NC(=O)c1ccc2c(c1)CCO2,-3.0,-3,.,-8%,.,
Cc1ccc(S(=O)(=O)N2CCOCC(=O)NCCOCCNC(=O)COCC2)cc1,-0.4,.,0,2%,-26,
Cc1ccc(OCCNC(=O)C(=O)NCc2ccco2)cc1,-2.8,9,-15,3%,.,
O=C(COC(=O)c1ccc[nH]c1=O)NC1CCCCC1,-2.5,-9,.,-2%,.,
O=C(COc1ccc(S(=O)(=O)N2CCc3ccccc32)cc1Cl)NCc1ccccn1,4.7,0,10,7%,-102,
CN(Cc1c(F)cccc1Cl)C(=O)c1ccc(COc2ccccc2)cc1,18,-2,.,.,.,

# Structures listed so far that have a cyano group (three):
SMILES,RecA splice inh,Mtb betalactam,Arbovirus inh,Mtb growth,YopH PTP inh,others
CCC1(C)Cc2c(C#N)c(SC)nc(N3CCOCC3)c2CO1 (configuration not stated),1.0,75,.,.,.,
C/C(=N\OCc1ccc(C#N)cc1)c1ccccc1,2.0,7,0,11%,.,
N#CC1=C(N)Oc2c(oc(CO)cc2=O)C1c1ccsc1 (configuration not stated),-2.0,1,-3,-5%,-19,

# Later entries.
SMILES,RecA splice inh,Mtb betalactam,Arbovirus inh,Mtb growth,YopH PTP inh,others
O=C(NCCN1C(=O)C2C3C=CC(C3)C2C1=O)Nc1ccccc1O (configuration not stated),-4.0,6,5,-15%,-29,Arbovirus inh repeat=4
COc1ccc(C(C(=O)NC2CCCC2)N(C(=O)c2ccco2)c2cc3c(cc2C(C)=O)OCO3)cc1 (configuration not stated),3.2,5,.,.,.,
CCOc1c(C)cc2[nH]c(CCC(=O)O)nc2c1C,-0.9,-4,4,1%,-16,
O=c1[nH]c(=O)n(Cc2ccccc2)c(O)c1C=NCCCO,-1.9,17,6,2%,14,
C=CCn1nnc2sc3c(c2c1=O)CCC(C)C3 (configuration not stated),2.5,-3,2,1%,-14,
O=C(Oc1ccc(Cl)c2cccnc12)N1CCCCC1,1.1,18,-1,5%,-13,
CCN(C(=O)CN1CCN(c2ccccc2F)CC1)c1c(N)n(Cc2ccccc2)c(=O)[nH]c1=O,-1.2,17,4,2%,.,
CC(C)C(c1nnnn1Cc1ccc(F)cc1)N1CCN(Cc2ccc3c(c2)OCO3)CC1 (configuration not stated),-1.5,2,-2,7%,-40,
O=C(/C=C/c1cccs1)NCc1cccnc1,-2.5,-3,-9,2%,-13,
Clc1ccc(-c2nnnn2-c2ccc(Cl)c(Cl)c2)cc1Cl,19,5,-1,11%,-14,
Cc1ccc(N(CCC#N)C(=O)COC(=O)C2CCN(c3ccc(C(F)(F)F)cn3)CC2)cc1,1.5,4,.,.,.,
C=CCn1c(SCC(=O)Nc2ccc(N3CCOCC3)cc2)nc2ccccc2c1=O,-0.8,-1,.,.,.,
COc1ccccc1CNC(=O)CNC(=O)c1sc2ccccc2c1Cl,4.9,?,.,.,.,
Cc1nc(NCc2ccco2)c2c(C)c(C)sc2n1,0.1,31,-28,5%,-20,
O=C(NCc1ccco1)c1ccccc1NC(=O)C1CC(=O)N(c2ccc(Cl)cc2)C1 (configuration not stated),0.3,-5,4,-1%,4,
CCCCN(C(=O)c1ccc(OC)c([N+](=O)[O-])c1)c1c(N)n(CCC)c(=O)[nH]c1=O,0.3,-1,.,.,.,
CCOCCCNc1nc2c(C)cccn2c(=O)c1/C=C1\SC(=S)N(CC(C)C)C1=O,-2.3,5,-1,.,-4,
COc1ccc(/C=N/NC(=O)c2cccc(NC(C)=O)c2)c(C(=O)O)c1OC,-1.3,6,0,2%,.,
Cc1onc(C(=O)NN)c1C(=O)Nc1ncc(C(F)(F)F)cc1Cl,-4.3,3,4,-3%,.,
COc1ccc(NC(=O)CCCc2ccccc2)cc1OC,0.5,2,.,.,.,
COc1ccc2c(c1)CC[C@@H]1[C@@H]2CC[C@]2(C)[C@@H](C(=O)O)C[C@@H]12,-1.4,-10,.,.,.,
O=C(OCCO)c1cc(Cl)c(C(=O)OCCO)cc1Cl,-2.4,1,5,2%,-41,
CCc1ccc(/C=N/NC(=O)Cc2cccn2C)cc1,1.1,-1,.,-4%,.,
CC(=O)N1CCN(c2ccc(NCc3ccc(C)s3)cc2)CC1,-2.7,-9,-13,1%,.,Arbovirus inh repeat=-12
CN1CCN(S(=O)(=O)c2ccc(NC(=O)C3CCCO3)cc2)CC1 (configuration not stated),1.1,3,-1,1%,-31,
COc1ccc(CNC(=O)C(OC(C)=O)c2ccccn2)cc1 (configuration not stated),-2.0,-12,9,3%,-38,
COc1ccc(-n2nnc3c(=O)n(C/C=C/c4ccccc4)cnc32)cc1,-1.2,-7,2,2%,-27,
CC(C)N(Cc1ccccc1)C(=S)NC(=O)C1(C)CC1(Cl)Cl (configuration not stated),-2.9,28,2,36%,.,
O=C(CCN1CCCCC1)Nc1ccc(Br)cc1,-1.4,-8,3,-4%,8,
Cc1nnc(C)c2c(C)n(Cc3ccc4c(c3)OCO4)c(C)c12,-24,1,-10,2%,-120,
CC(C)=CC(=O)N1CCCc2ccccc21,0.6,2,0,-4%,19,

# Gathered by group: the entries above containing a tert-butyl group (2)
SMILES,RecA splice inh,Mtb betalactam,Arbovirus inh,Mtb growth,YopH PTP inh,others
Cc1cc(C(C)(C)C)oc1C(=O)NCCCNC(=O)c1oc(C(C)(C)C)cc1C,-1.6,-12,-2,-6%,-3,
CC(C)(C)NC(=O)c1ccc2c(c1)CCO2,-3.0,-3,.,-8%,.,

# Screening data: PubChem BioAssay, several laboratories

# An excerpt; the hit share may differ from the screen's.
